Screening data: PubChem BioAssay, National Center for Advancing Translational Sciences (NCATS)
Marburg entry inh: Marburg virus entry inhibition; Marburg virus pseudotyped entry inhibition, cell reporter; control for the full effect not named in the record; about a third of the inactives were read at about 46 µM; Potency, µM (titrated, usually from 37.8 µM), without a hit: at the top dose activity change, negative = inhibition, actives largely listed as inhibitors; actives 1.8% (n = 300,000); AID 540276; active = well fitted inhibition curve with a large enough effect; inconclusive = small, poorly fitted or top-dose-only effect, or effect the other way; inactive = flat fitted curve, though single readings scatter; tested in HEK293 cells; about a fifth of its hits are not listed in these tables; also: % is scaled to controls: 0 for no effect and ±100 for the full control effect; luciferase read-out
RE007 growth inh: less growth of the S. pombe RE007 Vpr strain | S. pombe RE007 Vpr strain, BacTiter-Glo ATP luminescence, 24 h; control for the full effect not named in the record | Potency, µM (top dose mostly 92.2 µM), for inactives: top-dose activity change, negative = less growth | actives 0.21% (n = 360,000) | AID 651644; active = well fitted falling curve with a large enough effect; inconclusive = small, poorly fitted or top-dose-only effect; inactive = no such curve, though single readings can be large or run the other way;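 also: % is scaled to controls: 0 for no effect and ±100 for the full control effect; nearly all actives have a fitted effect of over 50% in size; the assay follows cell death caused by Vpr and the record does not say whether a fall means rescue or toxicity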
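Fission yeast strain RE007, carrying one chromosomally integrated HIV-1 vpr copy, was seeded at OD 0.01 in PMG+AL medium with 23 nL pinned compound. After 24 h at 30 °C and 99% humidity, viability was read by BacTiter-Glo luminescence.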
Lassa entry inh: blocks Lassa virus binding to or entry into cells; AID 540256; Lassa virus pseudotype entry inhibition, cell reporter; control for the full effect not named in the record; actives 1.2% (n = 300,000); Potency, µM (series often up to 37.9 µM), for the others: top-dose activity change, negative = inhibition, usual class: inhibitors; active means well fitted inhibition curve with a large enough effect; inconclusive means small, poorly fitted or top-dose-only effect, or effect the other way; inactive means flat fitted curve, though single readings scatter; tested in HEK293 cells; also: % is scaled to controls: 0 for no effect and ±100 for the full control effect; nearly all actives have a fitted effect of over 50% in size; luciferase read-out
Cruzain noTriton: cruzain (T. cruzi) inhibition without detergent; P25779; purified cruzain, Z-FR-AMC fluorescence, no detergent; Potency, µM, without a hit: max response, negative = inhibition, most hits filed as inhibitors; actives 2.3% (n = 200,000); AID 1476;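 also: plate controls were enzyme without inhibitor for no effect and buffer without enzyme for full effect; nearly all actives have a fitted effect of over 40% in size; top concentration of the series not given in the record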
Target sequence (P25779 123-467 limits assumed): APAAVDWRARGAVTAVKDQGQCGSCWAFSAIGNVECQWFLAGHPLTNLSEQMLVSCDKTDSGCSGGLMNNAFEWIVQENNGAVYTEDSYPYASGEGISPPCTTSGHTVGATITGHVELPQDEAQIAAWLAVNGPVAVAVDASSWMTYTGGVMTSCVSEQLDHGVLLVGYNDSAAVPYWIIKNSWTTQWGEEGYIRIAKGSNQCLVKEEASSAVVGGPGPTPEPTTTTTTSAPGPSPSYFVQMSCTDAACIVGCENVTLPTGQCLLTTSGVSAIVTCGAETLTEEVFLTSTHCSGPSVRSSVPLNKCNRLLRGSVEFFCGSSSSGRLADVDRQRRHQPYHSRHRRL
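Purified cruzain at 1.5 nM, pre-incubated 15 min with compound at room temperature in 100 mM sodium acetate pH 5.5, 5 mM DTT, 0.00005% Triton X-100. Reaction started with 2 uM Z-FR-AMC; AMC fluorescence increase over 60 s gives rate.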
Cruzain inh Det: blocks cruzain activity in presence of Triton detergent; P25779; purified cruzain, Z-FR-AMC fluorescence, 0.01% Triton; Potency, µM, for inactives: max response, negative = inhibition, usual class: inhibitors; actives 0.43% (n = 200,000); AID 1478;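 also: plate controls were neutral wells for no effect and buffer without enzyme for full effect; nearly all actives have a fitted effect of over 40% in size; top concentration of the series not given in the record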
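Sodium acetate buffer (100 mM, pH 5.5) containing 5 mM DTT and 0.01% Triton X-100 hosted 1.5 nM cruzain and test compound for 15 min at room temperature. Cleavage of 2 uM Z-FR-AMC was then tracked by fluorescence.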
SARS PLpro yeast: inhibitors of SARS-CoV papain-like protease in yeast | S. cerevisiae expressing SARS-CoV PLpro, growth rescue; control for the full effect not named in the record | Potency, µM (series often up to 32.9 µM), for inactives: at the highest dose activity, positive = growth rescue | actives 0.19% (n = 330,000); active means well fitted rising curve with a large enough effect; inconclusive means small, poorly fitted or top-dose-only effect; inactive means no such curve, though single readings can be large or run the other way; also: 0% is about no effect; nearly all actives have a fitted effect of over 55% in size; growth read by luminescence after 48 h
NS1 inh: influenza NS1 inhibition; actives 0.4% (n = 270,000); S. cerevisiae slowed by influenza A NS1, growth recovery by OD600; AID 2326; Potency, µM (highest dose often 46.1 µM), inactives show at the highest dose activity, positive = more growth; active means well fitted rising curve with a large enough effect; inconclusive means small, poorly fitted or top-dose-only effect; inactive means no such curve, though single readings can be large or run the other way; also: nearly all actives have a fitted effect of over 50% in size
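A cell-based growth assay was used: compounds that relieve NS1-induced slow growth of budding yeast raise OD600. Assay medium was yeast nitrogen base with ammonium sulphate and -URA supplement, pH 6.0, with 2% galactose.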
2A StopGo: lowers the luciferase signal of an FMDV 2A StopGo reporter; human cells with a luciferase reporter of 2A StopGo recoding; control for the full effect not named in the record; Potency, µM (top dose mostly 57.9 µM), without a hit: at the highest dose signal change, negative = less light; actives 1.2% (n = 410,000); active = well fitted falling curve with a large enough effect; inconclusive = small, poorly fitted or top-dose-only effect; inactive = no such curve, though single readings can be large or run the other way; tested in HEK293T cells; also: % is scaled to controls: 0 for no effect and ±100 for the full control effect; nearly all actives have a fitted effect of over 45% in size; luciferase light after 4 h
Starred values were filed as active, the others as inactive; u = inconclusive; x = no result given; [ ] = another dose, or the depositor's remark. Unless noted, calls follow the shape of the dose curve; as a rule, active = well fitted curve in the direction sought with a large enough effect; inconclusive = small, poorly fitted or top-dose-only effect, or another doubt; inactive = no such curve, though single readings can be large; an effect the other way counts as inactive or inconclusive. Potency is read from the fitted curve at half-maximal effect.

SMILES	Marburg entry inh	RE007 growth inh	Lassa entry inh	Cruzain noTriton	Cruzain inh Det	SARS PLpro yeast	NS1 inh	2A StopGo
CSc1ccc(CCNc2ncnc3onc(-c4ccc(Cl)cc4)c23)cc1	x	x	-17%[46.1 µM]	1%	-4.6%	x	x	u
CCn1c2ccccc2c2cc(NC(=O)COC(=O)c3cc(OC)c(OC)cc3OC)ccc21	u	-11%	-28%	u	-5.0%	8%	11%	u
Cc1cc(C)cc(NC(=O)N2CCCC2C(=O)NCc2ccco2)c1 (stereo not given)	6%[46.1 µM]	-11%	12%	x	x	-2%	-2%	-8%
COc1ccc2nc(NC(=O)c3cnccn3)sc2c1	u	19%	u	2%	2.7%	-3%	9%	40%[activator]
O=C(Cn1cnc2c(cnn2-c2ccc(F)cc2)c1=O)OCc1ccccc1	4%	-8%	-22%	-8%	3.6%	3%	3%	7%
O=S(=O)(c1ccccc1)N(CC1CO1)c1ccccc1 (stereo not given)	-3%[46.1 µM]	7%	2%	x	x	1%	3%	-12%
CN1CCCN(S(=O)(=O)c2ccccc2)CC1	9%[46.1 µM]	7%	12%[46.1 µM]	x	x	2%	4%	0%
Clc1cnc2nc(SC/C=C/c3ccccc3)[nH]c2c1	x	9%	x	x	x	-1%	6%	18%
Cc1cc(OCC(=O)NCC2CCC(C(=O)O)CC2)c2c(C)cc(=O)oc2c1 (stereo not given)	x	7%	x	x	x	0%	-5%	-17%
CCCCCCCCNC(=S)NCCN1CCCCC1	15µM*	-23%	u	x	x	4%	x	u
COc1ccc(N2CCN(c3nc(Nc4ccc(C)c(F)c4)nc(N4CCCC4)n3)CC2)cc1	-8%	-8%	-21%	x	x	-1%	x	-25%
Cn1cc([N+](=O)[O-])c(C(=O)Nc2nc(-c3ccc(Cl)cc3)cs2)n1	u	-3%	u	u	-1.1%	-5%	1%	u
O=C(C1CCC1)N(CCc1ccccc1)Cc1nc2ccccc2c(=O)[nH]1	1%[46.1 µM]	-7%	u	7%	1.4%	-9%	-12%	-26%
COc1cc2c(cc1OC)CN(c1ccc(F)cc1[N+](=O)[O-])CC2	u	6%	12%	x	x	-4%	-2%	24%
CN(C1CCCCC1)S(=O)(=O)c1ccc(S(=O)(=O)N2CCCC2)cc1	u	-2%	-6%	8%	-2.1%	-3%	-28%	x
CNC(=O)c1ccc(Nc2nnc(-c3ccc(C)c(S(=O)(=O)NCC4CCCO4)c3)c3ccccc23)cc1 (stereo not given)	u	-10%	u	u	-14%	10%	-17%	61%[activator]
N#Cc1c(N)nc2c(c1-c1ccc3c(c1)OCO3)CCc1ccccc1-2	u	18%	u	11%	-3.7%	-23%	-7%	u
CC(=O)c1ccc(NC(=O)CSc2ccc3nnc(-c4cccnc4)n3n2)cc1	-3%	11%	8%	x	x	1%	x	1%
CC(C)(C)c1ccc(C(=O)Nc2ccc(Oc3cccnc3)nc2)cc1	9%	-6%	u	x	x	1%	-2%	35µM*
CCOc1ccc2c(c1)sc1nc(C(=O)OC)cc(=O)n12	2%	18%	4%	x	x	x	9%	11%
NC(=O)COc1ccccc1C(=O)O	1%	1%	u	x	x	-1%	x	-12%
CC(=O)c1ccc(OCc2cc(C(=O)NC(C)c3cnn(C)c3)no2)cc1 (stereo not given)	x	4%	x	x	x	1%	-10%	31%[activator]
O=C(Cc1c(F)cccc1Cl)NCC1CCCO1 (stereo not given)	21%	12%	11%	-4%	1.3%	0%	3%	x
CCOCC(=O)NCc1ccc2c(c1)cc(C)n2C	x	3%	x	x	x	3%	9%	-5%
NC1=C(c2ccc([N+](=O)[O-])cc2)C(=O)CO1	14%[46.1 µM]	13%	0%	-20%	-1.7%	-10%	-2%	4%
O=C(C1CCC(=O)N(C2CC2)C1)N1CCC(Oc2cccc(C(F)(F)F)c2)CC1 (stereo not given)	x	3%	x	x	x	6%	-5%	-15%
COc1ccccc1-c1nnc(SCC(=O)Nc2ccc(N3CCOCC3)cc2)n1N	u	9%	2%	x	x	-2%	x	27%
CN1CCN(C(=O)c2cc3c(ccc4ccccc43)oc2=O)CC1	8%	6%	9%	u	-2.4%	3%	-4%	-12%
CCc1ccc(-n2c(SCC(=O)N3Cc4ccccc4CC3C(=O)O)nnc2-c2ccncc2)cc1 (stereo not given)	x	-5%	x	x	x	-1%	0%	2%
CN(C)c1ccc(C(CNC(=O)c2ccccc2Cl)N2CCc3ccccc32)cc1 (stereo not given)	x	x	29%[46.1 µM]	32µM*	-17%	x	x	14%
CC(C)(C)C(=O)O/N=C(\N)c1ccc(Oc2cc(Cl)cc(Cl)c2)c([N+](=O)[O-])c1	9%[46.1 µM]	7%	9%[46.1 µM]	x	x	1%	1%	-23%
O=C(CS(=O)(=O)c1ccccc1)Nc1ccc(Cl)cn1	x	5%	x	x	x	-5%	-2%	37%[activator]
COc1ccc(OCC(=O)N2CCCC2=O)c([N+](=O)[O-])c1	x	-4%	x	x	x	3%	18%	2%
CNC(=S)N(Cc1ccco1)Cc1cc2cc3c(cc2[nH]c1=O)OCCO3	-1%	-10%	-7%	-11%	-10%	25%	-5%	-17%
CCC(Sc1nc2cc(OC)c(OC)cc2c(=O)n1CCc1ccc(OC)c(OC)c1)C(=O)NCCOC (stereo not given)	-4%[46.1 µM]	5%	u	x	x	-5%	x	-21%
O=S(=O)(NCC(c1cccs1)S(=O)(=O)c1ccccc1)c1ccc(F)cc1 (stereo not given)	x	x	-10%[46.1 µM]	-4%	-3.3%	x	x	35%[activator]
CCOC(=O)c1c(C)[nH]c(C(=O)COC(=O)c2ccccc2NC(=O)c2ccco2)c1C	-28%	-15%	-2%	-6%	-5.7%	0%	-2%	-2%
CC(C)N1CCN(C(=O)c2cccc(Cl)c2)CC1	5%[46.1 µM]	-6%	21%[46.1 µM]	x	x	-2%	-11%	-8%
CCCCn1c(N)c(N(CC(C)C)C(=O)c2ccc(OCc3c(C)noc3C)cc2)c(=O)[nH]c1=O	20%	-3%	27%	x	x	1%	x	-14%
C=C1CSc2nc(=O)c3c4c(sc3n21)CCCC4	-13%	-13%	5%	-10%	-4.2%	-5%	-47%	-3%

Some of the entries above in another layout.
Molecule | Marburg entry inh | RE007 growth inh | Lassa entry inh | Cruzain noTriton | Cruzain inh Det | SARS PLpro yeast | NS1 inh | 2A StopGo
O=C(C1CCC(=O)N(C2CC2)C1)N1CCC(Oc2cccc(C(F)(F)F)c2)CC1 (stereo not given) | x | 3% | x | x | x | 6% | -5% | -15%
COc1ccccc1-c1nnc(SCC(=O)Nc2ccc(N3CCOCC3)cc2)n1N | u | 9% | 2% | x | x | -2% | x | 27%
CN1CCN(C(=O)c2cc3c(ccc4ccccc43)oc2=O)CC1 | 8% | 6% | 9% | u | -2.4% | 3% | -4% | -12%
CCc1ccc(-n2c(SCC(=O)N3Cc4ccccc4CC3C(=O)O)nnc2-c2ccncc2)cc1 (stereo not given) | x | -5% | x | x | x | -1% | 0% | 2%
CN(C)c1ccc(C(CNC(=O)c2ccccc2Cl)N2CCc3ccccc32)cc1 (stereo not given) | x | x | 29%[46.1 µM] | 32µM* | -17% | x | x | 14%

Next compounds:
SMILES	Marburg entry inh	RE007 growth inh	Lassa entry inh	Cruzain noTriton	Cruzain inh Det	SARS PLpro yeast	NS1 inh	2A StopGo
Cc1c(/C=N/NC(=O)COc2ccccc2[N+](=O)[O-])c2ccccc2n1C	-23%	4%	-4%	u	-7.0%	13%	11%	-15%
CCC(=O)Nc1c(S(=O)(=O)c2ccccc2)c2nc3ccccc3nc2n1Cc1ccccc1	u	12%	-14%	1%	-4.7%	-9%	-3%	-10%
CCN1CCc2c(sc(NC(=O)CSc3ccccc3)c2-c2nc3ccccc3s2)C1	x	x	-27%[46.1 µM]	-14%	-0.8%	x	x	-13%
CC1(C#CC[N+]2(C)CCCCC2)CCC2C(O1)c1ccccc1OC2(C)C (stereo not given)	0%	-20%	0%	x	x	-2%	2%	13%
Cc1cc(Nc2ccc(Br)cc2)n2nc(-c3ccccc3C)nc2n1	0%[46.1 µM]	x	-24%[46.1 µM]	-18%	-1.9%	x	x	-24%
Cc1cccc(N(C(=O)Cc2cccs2)C(C(=O)NC2CCCC2)c2ccncc2)c1 (stereo not given)	-25%[46.1 µM]	7%	10%	x	x	6%	-3%	0%
CCOc1ccccc1OCCCOc1ccc(C)cc1Br	18%	0%	8%	10%	3.4%	-33%	-3%	3%
CC(=O)c1ccc(NC(=O)c2cc(CC(C)C)nc3ccccc23)cc1	x	-3%	x	x	x	-2%	-23%	20%
Cc1ccc(C)c(OCCC(=O)Nc2ccccc2C(=O)NC2CC2)c1	1%[46.1 µM]	-16%	-3%[46.1 µM]	x	x	-5%	x	-5%
COc1cc(SC)ccc1C(=O)NCCOc1c(C)cc(C)cc1C	-18%	-13%	23%[14.3 µM]	-6%	0.7%	-7%	10%	u
COc1cccc(-c2nc(S(=O)(=O)c3ccccc3)c(N3CCOCC3)o2)c1	-1%	35%	u	-3%	-1.5%	2%	-11%	x
O=[N+]([O-])c1ccc(O)c(/C=N/n2c(-c3ccccc3)n[nH]c2=S)c1	4%	u	-16%	x	x	-24%	-134%	-10%
Cc1nn(-c2ccc(Cl)nn2)c(=O)c2ccccc12	u	68%	24%	x	x	-2%	x	41%[activator]
CC(C)Cc1cc(C(=O)Nc2ccc(Br)cc2)no1	x	-9%	x	x	x	-2%	4%	53%[activator]
COc1cc(/C=C/C(=O)OC(C)C(=O)Nc2c(C)n(C)n(-c3ccccc3)c2=O)ccc1O (stereo not given)	6%	10%	10%[46.1 µM]	x	x	x	x	-11%
COc1ccc2nc3oc(C(=O)N4CCN(c5cc(C)ccc5C)CC4)cc3cc2c1	18%[46.1 µM]	x	u	1%	4.5%	x	x	-4%
